Assay outcomes (PubChem BioAssay)
rRNA inh HTS – selective bacterial rRNA inhibition in E. coli; GFP signal change (wild-type ribosome), % (test concentration not listed); E. coli WT GFP vs humanized-ribosome RFP mutants, fluorescence, 24 h; hits give low values; DMSO median 0, no signal -100; hit rate 1.6% among 350,000; AID 720706;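 active = significant combined selectivity score with lowered wild-type GFP, culture density cut under 30%, mutant RFP and density less affected; inactive = any of these conditions unmet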; also: one replicate is shown; some compounds called inactive have numbers as strong as hits
rRNA inh HTS OD600 – recorded beside rRNA inh HTS, whose call it bears; OD600 change, %; measured here: OD600 growth;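 optical density of the mix in the first replicate; 0 = DMSO median and -100 = no signal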
rRNA inh HTS RFP – recorded beside rRNA inh HTS, whose call it bears; RFP signal change, %; measured here: RFP humanized mutant strains;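 first replicate; 0 = DMSO median and -100 = no signal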
Active calls of the source: *; & = joins results of further samples. The list is partial (hit frequency here may not be typical).

SMILES | rRNA inh HTS | rRNA inh HTS OD600 | rRNA inh HTS RFP
CNC[C@H]1Oc2c(NS(=O)(=O)c3cn(C)cn3)cccc2C(=O)N([C@H](C)CO)C[C@@H]1C | 2 | -1 | -1.5
CCCNC(=O)N1[C@@H]2c3ccc(-c4ccc(F)cc4)c(=O)n3C[C@@H]2[C@@H](CO)[C@@H]1C(=O)N1CCCCC1 | 1 | 3 | -2.0
COC(=O)[C@@]1(Cc2ccc(OC)cc2)[C@H]2c3cc(C(=O)N4CCCC4)n(CCc4ccc(OC)c(Br)c4)c3C[C@H]2CN1C(=O)c1ccccc1 | 11 | 10 | 13
O=C(Nc1ccccc1)N1C[C@H]2[C@@H](c3ccccc31)[C@@H](CO)N2CC1CCCC1 | -10 | -26 | -2.6
C[C@@H]1CCCCO[C@@H](CN(C)CC2CC2)[C@H](C)CN([C@@H](C)CO)C(=O)c2cc(NC(=O)NC3CCCCC3)ccc2O1 | 4 | 9 | 2.1
Nc1ncnc2c1ncn2[C@@H]1O[C@H](C(=O)N2CCC(F)(F)CC2)[C@@H](O)[C@H]1O | 7 | 8 | 0.9
COC(=O)C1=CN(c2cccc(OCc3ccccc3)c2)C(N)=C(C#N)C1c1ccc(-c2ccccc2)cc1 (stereo unspecified) | 9 | 5 | 10
COc1ccc(NC(=O)N[C@H]2CC[C@H](CCNC(=O)c3ccccc3F)O[C@@H]2CO)cc1 | 2 | 3 | 0.9
CCCNC(=O)N(C)C[C@@H]1Oc2ncc(-c3ccc(F)cc3)cc2C(=O)N([C@H](C)CO)C[C@@H]1C | 2 | 0 | -1.2
C[C@H]1CCCCO[C@H](CN(C)C(=O)NC2CCCCC2)[C@@H](C)CN([C@@H](C)CO)C(=O)c2cc(NS(=O)(=O)c3ccccc3)ccc2O1 | -1 | -17 | 3.4
COc1ccc(NC(=O)Nc2ccc3c(c2)C(=O)N([C@@H](C)CO)C[C@@H](C)[C@H](CN(C)Cc2ccccc2)O3)cc1 | 3 | -1 | 3.1
CO[C@H]1CN(C)C(=O)c2cc(NS(=O)(=O)c3ccc(Cl)cc3)ccc2OC[C@@H](C)N(C(=O)NC(C)C)C[C@@H]1C | 2 | 2 | -0.5
O=C(c1cccs1)N1C[C@H](n2cc(C3CC3)nn2)[C@@H](O)C[C@@H]1c1ccccc1 | 3 | 6 | -0.2
COc1ccccc1-c1ccc([C@H]2[C@H](CO)N3CCCCN(C(=O)c4cccnc4)C[C@@H]23)cc1 | -4 | -8 | 0.5
Cc1ccc(S(=O)(=O)N(C)C[C@@H]2Oc3ccc(NS(=O)(=O)c4ccccc4)cc3CC(=O)N([C@H](C)CO)C[C@H]2C)cc1 | 1 | 3 | 2.4
COC(=O)[C@]12C[C@H](CC(=O)NCCc3ccccc3OC)C(=O)N(Cc3ccccc3)C1=C[C@H](C1CCCC1)O[C@@H]2C | 0 | -3 | 1.1
NC(=O)c1cccc(-c2ccnc3c2CC(C(=O)NCc2ccccc2)O3)c1 (stereo unspecified) | -2 | 13 | 2.7
CN1C[C@H]2[C@@H](c3ccccc31)[C@@H](CO)N2C(=O)C1CCCC1 | 0 | 2 | 0.1
N#C[C@@H]1[C@H](c2ccccc2-c2cccc(F)c2)[C@H](CO)N1C(=O)C1CCCCC1 | -12 | -54 | 20
COc1ccc(C)cc1S(=O)(=O)NCc1ccccn1 | 9 | 13 | -2.2

Nothing new here: entries from further up.
SMILES | rRNA inh HTS | rRNA inh HTS OD600 | rRNA inh HTS RFP
COc1ccccc1-c1ccc([C@H]2[C@H](CO)N3CCCCN(C(=O)c4cccnc4)C[C@@H]23)cc1 | -4 | -8 | 0.5
Cc1ccc(S(=O)(=O)N(C)C[C@@H]2Oc3ccc(NS(=O)(=O)c4ccccc4)cc3CC(=O)N([C@H](C)CO)C[C@H]2C)cc1 | 1 | 3 | 2.4
COC(=O)[C@]12C[C@H](CC(=O)NCCc3ccccc3OC)C(=O)N(Cc3ccccc3)C1=C[C@H](C1CCCC1)O[C@@H]2C | 0 | -3 | 1.1
NC(=O)c1cccc(-c2ccnc3c2CC(C(=O)NCc2ccccc2)O3)c1 (stereo unspecified) | -2 | 13 | 2.7
CN1C[C@H]2[C@@H](c3ccccc31)[C@@H](CO)N2C(=O)C1CCCC1 | 0 | 2 | 0.1

(listing goes on)
SMILES | rRNA inh HTS | rRNA inh HTS OD600 | rRNA inh HTS RFP
O=C(C[C@H]1CC[C@H](NS(=O)(=O)c2ccc(F)cc2)[C@H](CO)O1)NCCc1ccncc1 | -2 | 13 | 1.7
C[C@@H]1CN([C@@H](C)CO)C(=O)c2ccccc2-c2ccccc2CO[C@@H]1CN(C)Cc1cccnc1 | 2 | -1 | -1.1
CC(C)CC#Cc1ccc2c(c1)O[C@@H](CN(C)Cc1ccc(F)cc1)[C@@H](C)CN([C@H](C)CO)S2(=O)=O | 2 | 9 | -2.3
Cc1noc(C)c1NC(=O)N(C)C[C@@H]1Oc2ccc(NS(=O)(=O)c3ccc(F)cc3)cc2CC(=O)N([C@@H](C)CO)C[C@H]1C | 5 | 2 | -1.3
CC(C)NC(=O)Nc1ccc2c(c1)CC(=O)N([C@H](C)CO)C[C@H](C)[C@H](CN(C)Cc1ccc(C(=O)Nc3ccccc3N)cc1)O2 | -1 | 3 | -1.4
CCCC#Cc1cnc2c(c1)C(=O)N([C@@H](C)CO)C[C@H](C)[C@H](CN(C)C(=O)NCCC)O2 | 4 | 12 | -1.8
CCCC#Cc1cnc2c(c1)C(=O)N([C@H](C)CO)C[C@@H](C)[C@@H](CN(C)Cc1ccncc1)O2 | 1 | 2 | 0.2
C[C@@H]1CCCCO[C@@H](CN(C)S(=O)(=O)c2cn(C)cn2)[C@@H](C)CN([C@H](C)CO)C(=O)c2cc(NC(=O)CCC(F)(F)F)ccc2O1 | 2 | 7 | -0.5
Cc1ccccc1S(=O)(=O)N1CC[C@@H]2[C@@H](CO)Nc3ccc(-c4ccc(F)cc4)cc3[C@@H]21 | -8 | -32 | -2.5
CCOC(=O)C(=O)N(C)c1c(CC)nc2c(OCc3cccc(Cl)c3)cccn12 | -16 | -45 | 3.3

Structural class, the entries above containing a cyano group (two)
SMILES | rRNA inh HTS | rRNA inh HTS OD600 | rRNA inh HTS RFP
COC(=O)C1=CN(c2cccc(OCc3ccccc3)c2)C(N)=C(C#N)C1c1ccc(-c2ccccc2)cc1 (stereo unspecified) | 9 | 5 | 10
N#C[C@@H]1[C@H](c2ccccc2-c2cccc(F)c2)[C@H](CO)N1C(=O)C1CCCCC1 | -12 | -54 | 20

New compounds follow
SMILES | rRNA inh HTS | rRNA inh HTS OD600 | rRNA inh HTS RFP
CCN(CC)C(=O)c1cccc(-c2csc(C(O)c3ccc(OC)cc3)n2)c1 (stereo unspecified) | -3 | -5 | 2.0
CO[C@@H]1CN(C)C(=O)c2cc(NC(=O)C3CCCC3)ccc2OC[C@@H](C)N(C(=O)CC2CC2)C[C@@H]1C | 3 | 6 | -0.5
CCCCNc1cccc2c1S(=O)(=O)N[C@H](CC(C)C)CO2 | -5 | 5 | -3.7
CO[C@@H]1CN(C)C(=O)c2ccc(NS(=O)(=O)c3cccc(F)c3)cc2OC[C@@H](C)N(C(=O)Cc2cccnc2)C[C@@H]1C | 0 | -4 | 1.0
C[C@H]1CN([C@@H](C)CO)S(=O)(=O)c2ccc(-c3cncnc3)cc2O[C@H]1CN(C)C(=O)C1CC1 | 4 | 9 | -2.1
C[C@H](CO)N1C[C@H](C)[C@H](CN(C)Cc2ccncc2)Oc2c(NC(=O)C3CCCCC3)cccc2C1=O | 1 | 6 | -1.7
CCc1ccc(C(O)c2ncc(-c3ccc4ccccc4c3)[nH]2)cc1 (stereo unspecified) | -9 | 3 | -8.0
CO[C@@H]1CN(C)C(=O)c2cc(NC(=O)C3CCCC3)ccc2OC[C@@H](C)N(C(=O)CC2CC2)C[C@H]1C | 0 | 0 | -0.9
COc1cccc(S(=O)(=O)N(C)C[C@H]2OCc3cn(nn3)CCCC(=O)N([C@H](C)CO)C[C@@H]2C)c1 | 27&-2 | 9&-2 | 4.6&0.7
C[C@@H]1CN([C@@H](C)CO)C(=O)Cc2cc(NS(=O)(=O)c3cn(C)cn3)ccc2O[C@H]1CN(C)C(=O)Nc1cccc2ccccc12 | 6 | 14 | 3.3
CC(=O)C1=CCC(c2ccc(Cl)cc2)N(S(=O)(=O)c2ccc(C)cc2)C1 (stereo unspecified) | -3&-10 | -33&-18 | -11&-4.3
COCCNC(=O)C[C@H]1C[C@@H]2c3cc(NC(=O)NC4CCCC4)ccc3O[C@@H]2[C@@H](CO)O1 | 6 | 1 | 2.8
C/C=C/c1ccc2c(c1)O[C@@H](CN(C)C(=O)Nc1ccc(F)cc1)[C@H](C)CN([C@H](C)CO)S2(=O)=O | -2 | -19 | 0.9
CC(C)CC#Cc1ccc2c(c1)O[C@@H](CN(C)C(=O)Nc1ccccc1F)[C@@H](C)CN([C@@H](C)CO)S2(=O)=O | 1 | 0 | 3.8
CCC(=O)Nc1ccc2c(c1)C(=O)N(C)[C@H]1CC[C@H](CC(=O)NCc3ccccc3)O[C@@H]1CO2 | 1 | -1 | -2.4
NC(Cc1ccc(C(F)(F)F)cc1)c1csc(Nc2ccc(C(=O)c3ccccc3)cc2)n1 (stereo unspecified) | -63 | -77 | -24
C[C@H](CO)N1C[C@H](C)[C@H](CN(C)S(=O)(=O)c2cccs2)OCCCC[C@H](C)Oc2ccc(NS(=O)(=O)c3cccs3)cc2C1=O | -3 | 1 | 0.8
C[C@H]1CN([C@@H](C)CO)C(=O)c2cccc(NC(=O)Nc3ccccc3)c2O[C@@H]1CN(C)Cc1ccc(-c2ccccc2)cc1 | 0 | 5 | -2.6
CCC(=O)N1CC[C@@H]2[C@H]1c1cc(-c3cccc(C#N)c3)ccc1N[C@@H]2CO | 12 | 1 | 1.0
CC(C)C[C@@H](CN1CCC[C@H]1CN1C(=O)C(=O)NC[C@@H]1Cc1ccccc1)N1C[C@H](Cc2ccccc2)N(CCc2ccccc2)C(=O)C1=O | -21 | -20 | 4.7
O=C(c1ccccc1)N1C[C@@H]2[C@H](c3ccccc31)[C@H](CO)N2C(=O)CN1CCOCC1 | -2 | 2 | -1.1
CCCNC(=O)N1CC(=O)N2[C@@H](CO)[C@@H](c3ccc(C#CCC4CCCC4)cc3)[C@@H]2C1 | -17 | -55 | 7.8
C[C@H](CO)N1C[C@H](C)[C@@H](CN(C)Cc2ccc(Oc3ccccc3)cc2)Oc2c(NC(=O)c3nc4ccccc4s3)cccc2C1=O | 5 | 8 | 0.3
COc1ccc(S(=O)(=O)N[C@@H]2C=C[C@H](CC(=O)N3CCc4ccccc4C3)O[C@H]2CO)cc1 | -6 | 9 | 1.2
O=S(=O)(c1ccc(F)cc1)N1C[C@H]2[C@@H](c3ccccc31)[C@@H](CO)N2Cc1ccccc1Cl | -36 | -42 | 9.0
CCNC(=O)c1cc2c(c(-c3cccc(-c4cccnc4)c3)n1)[C@@H](CCO)N(S(C)(=O)=O)C2 | -1 | 0 | -2.6
C[C@@H]1CCCCO[C@H](CN(C)Cc2ccccc2)[C@@H](C)CN([C@@H](C)CO)C(=O)c2cc(NC(=O)Cc3ccccc3)ccc2O1 | -1 | -10 | -0.6
CC(=O)N(C)C[C@@H]1Oc2ncc(-c3cccc(F)c3)cc2C(=O)N([C@@H](C)CO)C[C@H]1C | -5 | 3 | -0.7
C[C@@H]1CN([C@H](C)CO)C(=O)c2cc(NS(=O)(=O)c3cccs3)ccc2O[C@@H](C)CCCCO[C@@H]1CN(C)S(=O)(=O)c1ccc(F)cc1 | -6 | -1 | -1.6
COc1ccc(S(=O)(=O)Nc2ccc3c(c2)C(=O)N([C@H](C)CO)C[C@@H](C)[C@H](CN(C)C(=O)C2CCCCC2)OCCCC[C@H](C)O3)cc1 | -5 | -2 | 5.2
COc1ccc(N2CCCC2=O)cc1S(=O)(=O)N1CCOCC1 | 6 | 6 | -3.1
CCCNC(=O)N1CC2(CCN(Cc3nccs3)CC2)c2c([nH]c3cc(OC)ccc23)[C@H]1CO | 1 | -1 | -3.3
C[C@H]1CN([C@@H](C)CO)S(=O)(=O)c2ccc(Br)cc2O[C@H]1CN(C)S(C)(=O)=O | 8 | 3 | -3.0
CO[C@@H]1CN(C)C(=O)c2cc(NC(=O)C3CCC3)ccc2OC[C@H](C)N(C(=O)NC(C)C)C[C@H]1C | 0 | 0 | -0.1
COc1ccc(NC(=O)N(C)C[C@H]2Oc3ccc(NC(=O)CCCCCC(=O)Nc4ccccc4N)cc3CC(=O)N([C@H](C)CO)C[C@H]2C)cc1 | 1 | 8 | -0.9
C=CCNc1nc(NCc2ccc(N(C)C)cc2)c2sc(-c3ccccc3)cc2n1 | -17 | -38 | 20
C[C@@H]1CN([C@@H](C)CO)C(=O)c2cc(NC(=O)c3ccncc3)ccc2O[C@H]1CN(C)Cc1ccc2c(c1)OCO2 | 0 | -5 | -4.0
CO[C@@H]1CN(C)C(=O)c2ccc(NC(=O)c3ccccc3)cc2OC[C@@H](C)N(C(=O)CN(C)C)C[C@H]1C | 1 | -1 | -0.3
CCCC#Cc1ccc2c(c1)O[C@H](CN(C)S(=O)(=O)c1cccc(F)c1)[C@H](C)CN([C@H](C)CO)S2(=O)=O | 3 | -1 | 2.8
C[C@@H]1CN([C@H](C)CO)C(=O)c2cc(C#CC3(O)CCCC3)cnc2O[C@H]1CN(C)C(=O)CN(C)C | 3 | 5 | -2.2
C[C@@H]1CCCCO[C@@H](CN(C)Cc2ccc3c(c2)OCO3)[C@H](C)CN([C@@H](C)CO)C(=O)c2cc(N(C)C)ccc2O1 | -2 | 0 | -1.4
CC1(c2nnnn2Cc2ccccc2)CCC(=O)N1CCCn1ccnc1 (stereo unspecified) | 8 | 14 | -3.9
